RGS16-Gao HTS: regulators of human RGS16-Galphao interaction; O15492+P09471; bead-based flow cytometry RGS16-Galphao binding, fluorescence; actives lie on both sides; binding response (% of control), % at 10 µM; actives 0.38% (n = 220,000); AID 1441;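 active means below 25% or above 175%, edge rows of some plates excepted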;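 further: Galphao activated by GDP with aluminum fluoride before binding; 100% = wells without compound and 0% = beads without RGS; some results beyond the cut were filed as inactive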
Target sequence (O15492 whole entry, looked up): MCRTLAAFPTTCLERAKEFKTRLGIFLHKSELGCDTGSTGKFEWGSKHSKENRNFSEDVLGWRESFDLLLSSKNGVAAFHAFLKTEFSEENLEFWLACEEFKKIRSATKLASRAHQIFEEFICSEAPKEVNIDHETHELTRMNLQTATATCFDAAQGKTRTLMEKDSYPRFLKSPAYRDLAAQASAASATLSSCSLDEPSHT
Target sequence (P09471 whole entry, looked up): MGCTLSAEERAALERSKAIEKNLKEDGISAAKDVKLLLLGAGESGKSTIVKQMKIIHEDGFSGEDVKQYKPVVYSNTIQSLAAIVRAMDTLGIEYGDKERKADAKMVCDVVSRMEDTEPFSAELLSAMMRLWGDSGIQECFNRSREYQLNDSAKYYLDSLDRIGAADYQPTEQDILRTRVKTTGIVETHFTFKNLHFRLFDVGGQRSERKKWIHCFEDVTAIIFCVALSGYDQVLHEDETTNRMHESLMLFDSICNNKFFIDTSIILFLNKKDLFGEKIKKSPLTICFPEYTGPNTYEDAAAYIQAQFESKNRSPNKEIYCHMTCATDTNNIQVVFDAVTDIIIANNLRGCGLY
GALR2 ag: GALR2 (human) receptor agonism; O43603; GALR2-expressing cells, agonist activation read-out; activation, %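 (tested at 5 µM)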; actives 0.48% (n = 140,000); AID 803;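 active means above mean plus 3 SD of all compounds, about 5% in these data, not always enough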;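 further: 0% = vehicle buffer wells and 100% = reference agonist at full effect; tested in CHO reporter cells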
Target sequence (O43603 whole entry, looked up): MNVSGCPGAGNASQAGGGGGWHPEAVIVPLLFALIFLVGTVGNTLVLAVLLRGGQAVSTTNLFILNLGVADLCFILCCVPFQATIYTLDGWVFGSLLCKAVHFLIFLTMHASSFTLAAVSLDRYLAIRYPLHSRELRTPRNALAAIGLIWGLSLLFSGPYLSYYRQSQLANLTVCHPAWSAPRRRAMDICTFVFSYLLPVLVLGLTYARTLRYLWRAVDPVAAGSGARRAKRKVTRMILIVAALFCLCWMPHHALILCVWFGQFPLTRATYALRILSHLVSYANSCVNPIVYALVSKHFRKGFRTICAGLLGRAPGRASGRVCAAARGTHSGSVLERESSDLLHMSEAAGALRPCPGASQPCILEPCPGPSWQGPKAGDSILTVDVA
INS promoter inh: TRM-6 insulin promoter activity inhibition | actives 0.9% (n = 130,000) | inhibition, % at 2 µM | TRM-6 cells (human fetal islet line), insulin promoter-eGFP reporter, imaging; reporter expression induced with tamoxifen;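 active means inhibition above the mean plus 3 SD, with well images judged a real hit on visual review, cut at about 60% in these data, passing the limit was not always enough; inconclusive means inhibition over the cutoff but images rejected on review; inactive means inhibition not above the cutoff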
HSV augment: HSV replication enhancement; HSV replication augmentation in cells, fold increase; maximum fold increase; actives 0.005% (n = 220,000); AID 1956;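 active means peak rise of 1.5-fold or more in the series; inconclusive means self-fluorescent or not available for retest; tested in PC3 cells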;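 further: first round at 10 µM; read as green reporter fluorescence; hits show the peak of a series up to 25 µM; 1 = signal of infected wells without compound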
PKD1 kinase inh: inhibitors of human PKD1 kinase; actives 0.056% (n = 200,000); inhibition, %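 (about 10 µM by stock and volumes)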; Q15139; PKD1 kinase fluorescence polarization assay;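 active means inhibition of 50% or more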;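 further: controls were vehicle for no effect and a reference inhibitor for full effect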
INS promoter inh cell count: second read-out of INS promoter inh, no call of its own (marks repeat the call); normalized cell count, %; measured here: cell count, toxicity; reference of the scale not given here;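 cells exposed to compound for 48 h; stained nuclei by imaging scaled within each plate; lower means fewer cells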
HSV augment primary fold: second read-out of HSV augment, no call of its own (marks repeat the call); fold increase; compound at 10 µM; measured here: primary screen fold increase 10 uM; tested in PC3 cells;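 GFP signal in the first replicate; 1 = infected wells without compound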
Active calls of the source: *; i = inactive; ? = inconclusive; . = no result given. Compounds as they come; about 1.3% have a hit in one of these screens.

cpd	Molecule	RGS16-Gao HTS	GALR2 ag	INS promoter inh	INS promoter inh cell count	HSV augment	HSV augment primary fold	PKD1 kinase inh
1	Cc1ccn2c(NC3CCCCC3)c(C(C)C)nc2c1	108	-2.0	i	79	.	.	-4
2	CC(=O)C1=C(C)OC(N)=C(C#N)C1c1ccncc1 (configuration not stated)	102	-1.5	-19	61	i	1.1	-11
3	CN(C(=S)Nc1cccnc1)c1ccc(O)cc1	76	-1.8	46	133	i	0.91	-9
4	Cc1c(C(=O)OCC(=O)N2CC(C)OC(C)C2)oc2ccc(Br)cc12 (configuration not stated)	52	-1.8	15	135	i	0.89	-9
5	O=C(CSc1nc2c(cnn2-c2ccccc2)c(=O)[nH]1)NC1CCS(=O)(=O)C1 (configuration not stated)	96	.	18	124	i	0.95	3
6	N#CC1=C(N)N(c2ccccc2)C2=C(C(=O)CCC2)C1c1ccsc1 (configuration not stated)	16*	1.0	-27	56	i	0.82	-10
7	COC(=O)c1nonc1NCn1nnc2ccccc21	100	-1.4	0	94	i	0.86	-6
8	CN(C)CCOC(=O)CC12CC3CC(C1)CC(CC(=O)OCCN(C)C)(C3)C2	107	.	-7	115	i	1	-9
9	COC(=O)c1cc(C(=O)OCC(=O)NC2CCS(=O)(=O)C2)cc([N+](=O)[O-])c1 (configuration not stated)	111	.	0	92	i	1.1	1
10	Cc1cc(C)cc(N2C(=O)CC(n3ccnc3)C2=O)c1 (configuration not stated)	101	-2.3	54	168	i	0.86	-4
11	O=c1c([N+](=O)[O-])c(N2CCOCC2)c2ccccc2n1Cc1ccccc1	101	.	.	.	i	0.88	-4
12	O=C(O)CC1SC(=Nc2cccc(C(F)(F)F)c2)NC1=O (configuration not stated)	98	-3.8	0	102	i	0.95	1
13	CCCCCC1CC(CC(=O)O)C(=O)O1 (configuration not stated)	109	1.3	61	80	i	0.81	-4
14	Cc1nc(-c2ccc(O)c(O)c2)cs1	102	-0.8	0	106	i	0.82	6
15	C=CCn1c(SCc2cc([N+](=O)[O-])cc3c2OCOC3)nc2cc(C(=O)O)ccc2c1=O	101	.	.	.	i	0.95	.
16	Cc1ccc(C2NC(=S)NC3=C2C(=O)CC(C)(C)C3)cc1 (configuration not stated)	103	0.0	.	.	i	0.88	-2
17	O=C(CCn1c(=O)oc2ccccc21)N1CCc2ccccc21	100	-4.0	.	.	i	0.79	-6
18	Cc1ccc(CC(=O)Nc2ccncc2)cc1	110	.	.	.	i	0.93	-7
19	Nc1c2c(nc3sc4c(c13)CCCC4)CCCCCC2	101	-1.1	-340	67	i	0.81	5
20	COc1ccc(C)cc1N(CC(=O)Nc1cccnc1)S(=O)(=O)c1ccc(C)cc1	109	.	36	74	i	0.97	4
21	Cc1cccc(NS(=O)(=O)c2cc(C(=O)OCC(=O)Nc3cc(C)on3)ccc2C)c1	103	0.1	.	.	i	0.97	-5
22	NC(=O)C(CCC(=O)c1ccc(Br)cc1)S(=O)(=O)c1ccccc1 (configuration not stated)	103	.	.	.	i	1.1	6
23	CC(=O)Nc1ccc2nc(CN3CCN(CC(C)C)C(CCO)C3)ccc2c1 (configuration not stated)	112	.	.	.	i	1	-7
24	COc1cc(NC(=O)c2cnn3c(C(F)F)cc(C4CC4)nc23)c(OC)cc1Cl	100	.	.	.	i	0.97	3
25	CC(C)CCNC(=O)c1ccc(OC2CCN(S(=O)(=O)N(C)C)CC2)cc1	114	.	.	.	i	0.95	-9
26	CCOc1ccc(Br)cc1S(=O)(=O)Nc1ccc(C(=O)OCC(=O)Nc2ccc(C#N)cc2)cc1	99	.	.	.	i	0.94	1
27	CC(C)(C)C1CCC(OC(=O)C[N+]2(C)CCCCC2)CC1 (configuration not stated)	105	.	-200	91	i	0.9	-2
28	COc1ccc(C2=CC3=C(Br)C(=O)C(C)(OC(=O)C4CCCC4)C(=O)C3=CO2)cc1 (configuration not stated)	97	.	.	.	i	0.81	.
29	CCN1C=C(Cc2ccc(OC)cc2)C2=C(C1)C(c1ccc(OC)cc1)C(C#N)=C(N)O2 (configuration not stated)	97	-0.3	.	.	.	.	-2
30	O=C(Nc1ccc(F)cc1)c1cnc(-c2ccccc2)nc1-c1ccccc1	106	-0.2	.	.	i	0.82	-1

(cont.)
cpd	Molecule	RGS16-Gao HTS	GALR2 ag	INS promoter inh	INS promoter inh cell count	HSV augment	HSV augment primary fold	PKD1 kinase inh
31	COc1ccc(OC)c(/C=N/c2c(-c3ccc(O)c(OC)c3)nc3ccccn23)c1	101	.	19	57	i	0.96	-6
32	CCCCOc1ccc(NC2=NC3(CCCCC3)N=C(N)N2)cc1	118	-1.3	-162	72	i	0.66	3
33	COc1ccc(C2NC(=O)c3sc4nc(C)c(C(C)=O)c(-c5ccc(Cl)cc5)c4c3N2)cc1 (configuration not stated)	100	1.0	.	.	i	0.8	-8
34	COc1cccc(C(=O)Nc2ccc(NC(=O)C3CC3)cn2)c1	104	-1.3	23	105	i	0.88	-8
35	O=C(c1ccc([N+](=O)[O-])cc1)N1CCCC1	100	.	.	.	i	1.1	.
36	C=CCNS(=O)(=O)c1ccc2c(c1)n(C)c(=O)n2C	103	.	6	72	i	1.1	-2
37	Cc1oc(-c2ccc(Cl)cc2)nc1CN1CCCC(C(=O)NCCCN2CCCC2=O)C1 (configuration not stated)	109	-0.7	.	.	.	.	-17
38	CCn1ccc(-c2ccccc2)c(C#N)c1=O	99	.	44	115	i	0.76	3
39	Cc1cc2nc3c(=O)[nH]c(=O)[nH]c3nc2c([N+](=O)[O-])c1N	82	.	.	.	?	.	19
40	O=C(N/N=C/C(Cl)=C/c1ccccc1)c1cnccn1	110	-1.7	44	72	i	0.89	-6
41	COc1ccc(-c2c([C@H]3[C@@H]4C=CCC[C@@]4(C)C(=O)N3Cc3ccccc3)ccc3ccccc23)cc1OC	101	.	.	.	i	0.78	.
42	COC(=O)c1ccccc1NC(=O)CC#N	98	-0.8	-32	62	i	0.97	-15
43	c1ccc(CNc2nnnn2-c2ccccc2)cc1	.	-2.0	-111	121	i	0.99	6
44	COc1ccc(CCNC(=O)C2CC(c3ccc([N+](=O)[O-])cc3)=NO2)cc1 (configuration not stated)	89	0.0	-22	102	i	1	-3
45	CCOC(=O)CSc1nnc(CNc2nc(-c3ccccc3)cs2)n1C	97	-1.2	-6	145	i	0.99	-4
46	CCNC(=O)/C(=C/c1cccc([N+](=O)[O-])c1)NC(=O)c1ccc(C)cc1	98	.	.	.	i	1	-8
47	O=C1CC(=C2c3ccccc3-c3ccccc32)C(=O)N1CCN1CCN(c2ccccc2)CC1	.	-2.7	49	113	i	0.93	-6
48	COc1cccc(C(=O)Nc2cc(NC(=O)c3ccco3)ccc2OC)c1	104	-1.2	i	46	i	0.94	-1
49	CCCCC(CC(C)O)c1n[nH]c(=S)n1-c1ccccc1 (configuration not stated)	126	-0.1	-24	68	i	1	1
50	NC(=O)COC(=O)[C@@H]1CC(O)CN1S(=O)(=O)c1ccc2c(c1)OCCO2 (some centres not stated)	102	.	.	.	i	0.98	.
51	Cc1ccc2nc(-c3ccc(NC(=O)CSc4nccc(=O)[nH]4)cc3)sc2c1	100	.	18	100	i	1	-3
52	C=CCc1c(C)nc(SC)nc1Nc1ccc(C(C)=O)cc1	99	-0.6	.	.	i	0.68	-8
53	CC1(C)CC(=O)C(N=Nc2ccc(Br)cc2)=C(O)C1	95	.	.	.	i	0.71	.
54	CC1CCCC(NC(=O)CCC(=O)c2ccc(F)cc2)C1C (configuration not stated)	108	.	.	.	i	0.95	.
55	CC(=O)NC(CC(=O)NC12CC3CC(CC(C3)C1)C2)c1ccccc1 (configuration not stated)	211	-0.3	30	91	i	0.92	-4
56	O=[N+]([O-])c1nn(-c2ccc3c(c2)OCCO3)n(O)c1=NCc1ccc(F)cc1Cl	102	.	-18	63	i	1.1	-7
57	CCCCCCC(=O)c1c(C)[nH]c(C(=O)OCC)c1C	.	3.1	63	56	i	0.98	-2
58	NC(=O)c1oc2ccccc2c1NC(=O)C1COc2ccccc2O1 (configuration not stated)	118	.	.	.	i	0.95	3
59	O=C(CCSc1ccc(Cl)cc1)c1cccs1	108	-1.4	45	32	i	0.99	-3
60	O=C(Cc1ccc(Cl)cc1)Nc1ccc(Br)cc1	99	.	.	.	i	0.95	4

The list goes on, overlapping the part above by three compounds.
cpd	Molecule	RGS16-Gao HTS	GALR2 ag	INS promoter inh	INS promoter inh cell count	HSV augment	HSV augment primary fold	PKD1 kinase inh
58	NC(=O)c1oc2ccccc2c1NC(=O)C1COc2ccccc2O1 (configuration not stated)	118	.	.	.	i	0.95	3
59	O=C(CCSc1ccc(Cl)cc1)c1cccs1	108	-1.4	45	32	i	0.99	-3
60	O=C(Cc1ccc(Cl)cc1)Nc1ccc(Br)cc1	99	.	.	.	i	0.95	4
61	O=S(=O)(CCc1nc2ccccc2[nH]1)c1ccc(Cl)cc1	108	-2.3	8	101	i	0.78	4
62	CN(C)/C=N/c1sc2c(c1C#N)CCCC2	100	.	.	.	i	0.97	2
63	CCOc1ccc(C2C(C(=O)c3ccco3)=C(O)C(=O)N2Cc2cccnc2)cc1 (configuration not stated)	108	-1.5	-75	104	i	0.53	-8
64	Cc1cccc2c1c1ccc3c(c1n2C)C(=O)C=CC3=O	63	.	.	.	i	1.1	.
65	Cn1c(=O)c2c(nc(SCC(=O)Nc3ccccc3)n2C)n(C)c1=O	102	-0.3	.	.	i	0.89	-3
66	O=C1c2ccc(Br)cc2C(=O)N1c1ccc(Cc2ccncc2)cc1	111	.	-7	115	i	1.1	-1
67	CCc1ccc(-c2nc(CS(=O)CC(=O)NCc3cccnc3)c(C)o2)cc1 (configuration not stated)	95	-2.7	14	102	i	1	6
68	CCOc1cc(C2c3c(n[nH]c3C)C(=O)N2c2ccc(C)cc2)ccc1O (configuration not stated)	108	-2.9	16	116	i	0.87	0
69	CN1CCN(C(=O)CNc2ccc(C(F)(F)F)cc2[N+](=O)[O-])CC1	106	.	-73	51	i	0.91	4
70	Cn1c(N=Nc2ccccc2)nc2ccccc21	110	-1.1	42	139	i	1	-18
71	FC(F)(F)c1n[nH]c(=S)n1/N=C/c1ccco1	110	-0.3	.	.	i	1.1	2
72	COC(=O)CN(c1cc(OC)ccc1OC)S(=O)(=O)c1ccc(OC)c(OC)c1	94	-0.7	.	.	.	.	1
73	Cc1ccc2[nH]c(=O)c(C(c3nnnn3CC3CCCO3)N3CCOCC3)cc2c1 (configuration not stated)	97	-0.5	-109	98	i	0.96	-8
74	Cc1cccc(N=C2NC(=O)/C(=C/C=C/c3ccco3)S2)c1C	81	-0.8	.	.	.	.	4
75	COC(=O)c1ccc(Oc2c(F)c(F)nc(N3CCOCC3)c2F)cc1	100	.	.	.	i	1	-5
76	COCCCNC(=O)C1CCN(C(=O)c2cc3sccc3n2Cc2ccc(F)cc2)CC1	98	-2.0	.	.	i	0.89	0
77	CCN(CC)CCNC(=O)C1CCCCN1S(=O)(=O)c1cccc([N+](=O)[O-])c1 (configuration not stated)	102	.	.	.	i	0.91	-2
78	CC(C)NC(=O)c1ccc(COCC(F)(F)C(F)F)cc1	99	-0.3	-80	67	i	0.96	2
79	C/C(=N\NC(=O)c1ccc([N+](=O)[O-])c(C)c1)c1ccccc1Cl	107	-0.2	45	129	i	0.92	-8
80	CN(C)/C=N/S(=O)(=O)c1ccc(Cl)c(Cl)c1	102	.	.	.	i	1	.
81	c1cnc(N2CC[N+]3(CCCC3)CC2)nc1	99	0.0	.	.	i	0.99	-2
82	O=c1[nH]c(CN2CCCCC2)nc2c1C1(CCCC1)Cc1ccccc1-2	.	-3.2	56	119	.	.	0
83	COc1ccc(-c2nnc3ccc(SC(C(C)=O)C(C)=O)nn23)cc1OC	97	-0.1	6	210	i	0.74	-2
84	O=C(Nc1ncccn1)c1ccc([N+](=O)[O-])cc1	94	.	47	94	i	0.93	1
85	COC(=O)Cc1c(C)c2ccc(OCc3nn[nH]n3)c(C)c2oc1=O	94	-2.4	71	100	i	0.98	-12
86	CCNC(=S)Nc1ccc(NC(=O)c2ccccc2O)cc1	106	.	.	.	i	1.1	.
87	O=C(NCCOc1ccccc1Cl)c1ncn[nH]1	93	.	0	104	i	1	0
88	COc1ccc(NC(=O)CCOc2ccccc2)c(OC)c1	102	-2.2	.	.	i	0.92	-17
89	N#Cc1ccc(N=c2ssnc2Cl)cc1	49	-2.9	6	88	i	1.2	-2
90	O=C(O)c1ccc(S(=O)(=O)NC2CCCc3ccccc32)cc1 (configuration not stated)	104	-2.0	23	98	i	1	5

Screens: PubChem BioAssay, several laboratories
